ClpP mod: qHTS Assay for Activators of ClpP | AID 651965, 2013 | Potency, µM (series often up to 57.5 µM), for the others: at the top dose activity change, negative = active | ATP-dependent Clp protease proteolytic subunit (Bacillus subtilis (strain 168)), P80244 | purified B. subtilis ClpP, FRET peptide cleavage, 20 min | hit rate 1.9% among 340,000; active = well fitted falling curve with a large enough effect; inconclusive = small, poorly fitted or top-dose-only effect; inactive = no such curve, though single readings can be large or run the other way; also: the source files actives as falling curves though it sought activators and does not explain the sign; nearly all actives have a fitted effect of over 65% in size; many hits overshoot -100%
Target sequence (P80244 whole entry, looked up): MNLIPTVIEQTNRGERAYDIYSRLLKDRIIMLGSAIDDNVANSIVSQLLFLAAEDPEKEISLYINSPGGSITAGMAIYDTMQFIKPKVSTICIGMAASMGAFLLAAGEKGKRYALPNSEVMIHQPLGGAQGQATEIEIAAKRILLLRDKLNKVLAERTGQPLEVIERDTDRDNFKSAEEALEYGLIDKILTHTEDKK
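Buffer: 100 mM Tris/HCl pH8, 100 mM KCl, 0.05% low protease BSA, 2.5% glycerol, 0.01% Tween-20. ClpP 10 microg/mL final; 20 min RT; delta FRET normalized to ADEP and DMSO controls.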
PINK1 modulator: modulators of PINK1 expression. hit rate 0.2% among 410,000. Potency, µM (highest dose often 76.6 µM), for the others: at the highest dose activation (PINK1 increase), most hits filed as activators. PINK1 immunofluorescence, high-content cytometry, 24 h; active = well fitted activation curve with a large enough effect; inconclusive = small, poorly fitted or top-dose-only effect; inactive = flat fitted curve, though single readings scatter; cell line not stated here;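 also: % of control where 0% means no effect; nearly all actives have a fitted effect of over 65% in size; a mitochondrial uncoupler was the plate control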
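Compound titrations (5 concentrations, 24 h) on a stable cell line; DMSO and CCCP controls. Endpoint: fixed-cell PINK1 immunofluorescence with mitochondrial, cell and nuclear markers, scanned by microplate cytometer.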
The depositor's hits bear a star; ? = inconclusive. Potency is read from the fitted curve at half-maximal effect. These rows are one share of the data; rates above refer to the full screens.

SMILES	ClpP mod	PINK1 modulator
COc1ccc(NC(=O)c2cnc(Nc3ccc(C)c(Cl)c3)c3ccccc23)cc1OC	-3.5%	-0.2%
Cc1noc(Cn2c(=O)c3ccccc3n(CC(=O)Nc3ccc(C(C)C)cc3)c2=O)n1	-3.5%	0.5%
CCC(C(=O)Nc1cccc(Cl)c1C)n1nc(-c2ccc(C)cc2)ccc1=O (stereo not given)	-10.0%	2.6%
O=S(=O)(NCC(c1ccco1)N1CCOCC1)c1ccc(Br)cc1 (stereo not given)	0.4%	2.3%
Cc1ccc(C)c(NC(=O)Cn2c(=O)n(Cc3ccc4c(c3)OCO4)c(=O)c3ccc(C(=O)NC4CCCCC4)cc32)c1	-2.0%	-3.5%
COc1ccc(OC)c(NC(=O)c2nc(S(=O)(=O)Cc3ccc(F)cc3)ncc2Cl)c1	-1.9%	8.2%
CC(C)(C)c1ccc(-c2nnc(-c3ccccc3NC(=O)c3ccc(F)cc3F)o2)cc1	-13%	-2.4%
CC(C)NC(=O)CN1C(=O)c2cccnc2Sc2ccccc21	0.2%	1.0%
C=Cc1ccc(Cn2c(C(=O)O)c(CNC3CCCCC3)c3ccc(C)cc32)cc1	-4.9%	0.5%
COc1ccc(/C=C/C(=O)Nc2nc(-c3cccs3)ns2)cc1	-7.5%	2.6%
Cc1ccc(NC(=O)c2cc(S(=O)(=O)N3CCc4ccccc43)ccc2F)cc1Cl	-6.4%	2.0%
Cc1cc(C)n2c(NC3CCCCC3)c(-c3ccc(F)cc3)nc2n1	-30%	0.3%
CCCCOc1cccc(C(=O)N(Cc2ccc(N(C)C)cc2)C2CCS(=O)(=O)C2)c1 (stereo not given)	-2.9%	-2.4%
Cc1nn(C(=O)c2ccc(Cl)cc2)c(C)c1Sc1ccc(Cl)cc1	1.2%	3.3%
CCOC(=O)c1cnn(-c2ccc(C(=O)Nc3cc(OC)c(OC)c(OC)c3)cc2)c1N	?	-1.2%
CS(=O)(=O)Nc1ccc(F)cc1	1.8%	-0.1%
CC(=O)c1cccc(NC(=O)CN2C(=O)c3cccnc3Sc3ccccc32)c1	-6.5%	0.1%
CCCCn1nnnc1C1(C)CCC(=O)N1Cc1ccc(C)cc1 (stereo not given)	-3.3%	-0.4%
Nc1nc(SCC(=O)O)c2[nH]cnc2n1	-11%	0.0%
Cc1nc(-c2ccc(S(=O)(=O)N3CCN(c4cccc(C(F)(F)F)c4)CC3)cc2)co1	-26%	-3.9%
COc1ccc(-c2cc(C(=O)NCCc3ccccc3)c3c(-c4ccc(Cl)cc4)[nH]nc3n2)cc1	4.3%	7.4%
Cc1ccc(-c2nnc(Nc3ccc(OCC(N)=O)cc3)c3ccccc23)cc1S(=O)(=O)NCC1CCCO1 (stereo not given)	1.0%	-1.4%
COC(=O)[C@]12CCCCC=C1N(Cc1cccc3ccccc13)C(=O)[C@H](CC(=O)N1CCOCC1)C2	-2.6%	1.5%
COc1ccc(Nc2c(CCc3ccccc3)nc3nc(C)cc(C)n23)cc1	-4.9%	-1.4%
O=C(Nc1cnn(Cc2ccc(Cl)cc2Cl)c1)c1noc2c1CCc1ccccc1-2	-4.8%	1.9%
CCOc1ccc(NC(=O)c2ccc3c(c2)CCN3S(=O)(=O)c2ccc(Cl)cc2)cc1	-9.5%	0.9%
Cc1nn(-c2ccccc2)c2nc(C3CC3)cc(C(=O)Nc3ccccc3F)c12	4.6%	2.6%
O=C(CCSCc1ccccc1Cl)NCCc1ccccc1	-0.9%	0.3%
Cc1ccc(C(=O)N2c3ccc(C)cc3C(C)(c3ccccc3)CC2(C)C)cc1 (stereo not given)	-4.5%	2.1%
COc1ccccc1OC(C)C(=O)N1CCC(c2nc3ccccc3s2)CC1 (stereo not given)	1.8%	4.7%
COc1ccc(N2CC(NC(=O)Cc3cccs3)CC2=O)cc1OC (stereo not given)	-2.1%	0.1%
COc1ccc(Cl)cc1NC(=O)Cn1nnc2sc3c(c2c1=O)CCC(C(C)(C)C)C3 (stereo not given)	-2.2%	3.5%
COc1ccc(Nc2ncnc3c2cnn3C)c(OC)c1	1.7%	5.2%
Cc1ccc(S(=O)(=O)NCCc2csc(-c3ccc(Cl)cc3)n2)cc1	-24%	3.4%
CCOC(=O)N1CCc2c(sc(NCc3cccs3)c2C(=O)Nc2cc(OC)ccc2OC)C1	-1.6%	1.5%
Cc1ccc(-n2nc3c(=O)n(CC(=O)Nc4ccccc4F)nc(C)c3c2C)c(C)c1	-2.4%	2.9%
COc1cccc(CNC(=O)CCc2c(C)c3cc4c(C)c(C)oc4cc3oc2=O)c1	4.0%	-1.4%
COCCNC(=O)C1CCC(CNS(=O)(=O)c2ccc3c(c2)CC(C)N3C(C)=O)CC1 (stereo not given)	0.3%	-0.4%
COc1ccc(Cn2c(C(=O)O)c(CNCCc3ccco3)c3ccc(OC)cc32)cc1	-9.5%	-1.1%
CCC1CN(C(=O)Nc2cccc(OC)c2)c2ccccc2O1 (stereo not given)	-1.8%	1.4%
Cc1ccc2nc(CN3CCN(C(=O)Nc4ccc(C)c(F)c4)CC3)oc2c1	0.2%	1.8%
Cc1ccccc1-c1noc(-c2cc(C(C)C)[nH]n2)n1	0.1%	3.1%
Cc1cc(F)ccc1NC(=O)C1CCCN(S(=O)(=O)c2ccc3c(c2)CCCC(=O)N3)C1 (stereo not given)	-0.9%	-1.2%
Cc1ccc(NC(=O)Cn2c(=O)oc3cc(S(=O)(=O)N4CCCCCC4)ccc32)cc1Cl	0.3%	0.5%
Cc1ccccc1OCC(=O)NCC(=O)OCC(=O)c1ccc(-c2ccccc2)cc1	-1.2%	2.0%
CC(=O)N1CCCc2ccc(NC(=O)c3ccc(OC(C)C)cc3)cc21	-1.4%	4.5%
CCOC(=O)C1=C(CS(=O)(=O)c2ccc(Br)cc2)NC(=O)NC1c1ccccc1 (stereo not given)	-4.5%	1.6%
Cc1ccc(C)c(N2CCN(C(=O)c3cnn(C(C)(C)C)c3C3CCN(C(=O)OC(C)(C)C)CC3)CC2)c1	-1.2%	-1.9%

Pulled by structure from the list above (four):
SMILES	ClpP mod	PINK1 modulator
COc1ccc(Cn2c(C(=O)O)c(CNCCc3ccco3)c3ccc(OC)cc32)cc1	-9.5%	-1.1%
Cc1ccccc1-c1noc(-c2cc(C(C)C)[nH]n2)n1	0.1%	3.1%
CC(=O)N1CCCc2ccc(NC(=O)c3ccc(OC(C)C)cc3)cc21	-1.4%	4.5%
CCOC(=O)C1=C(CS(=O)(=O)c2ccc(Br)cc2)NC(=O)NC1c1ccccc1 (stereo not given)	-4.5%	1.6%

Going on with the list:
SMILES	ClpP mod	PINK1 modulator
Cc1cccc(NC(=O)CSc2cc(C)c3ccccc3n2)c1	-3.7%	2.0%
CCc1ccc(NS(=O)(=O)c2ccc3[nH]cc(C(=O)NCCc4cccc(C)c4)c(=O)c3c2)cc1	-2.4%	-0.3%
Cc1ccc(CN(Cc2cccn2-c2nnc(N3CCCC3=O)s2)C(=O)Nc2cc(C)cc(C)c2)cc1	-4.7%	1.4%
N#Cc1c(-n2ncnc2-c2ccccc2Cl)sc2c1CCCCC2	1.0%	3.4%
COc1ccc(OC)c(CCNC(=O)c2c(C)oc3ncn(C)c(=O)c23)c1	0.0%	1.0%
COc1ccc(CCNC(=O)CCCCn2c(=O)c3ccccc3n(Cc3ccccc3Cl)c2=O)cc1OC	-9.3%	1.1%
Cc1ccc(-n2nc(CO)c(C(=O)NC(C)CCCc3ccccc3)n2)cc1C (stereo not given)	35µM*	-0.1%
COCc1nn2cc(-c3ccc(C)cc3)nc2s1	0.2%	2.4%
C=CCN1[C@@H](Cc2ccccc2)COc2cc(N3CCSCC3)ccc2S1(=O)=O	-27%	0.5%
COc1cc(NC(=O)CCc2c(C)nn(-c3ccc4nncn4n3)c2C)cc(OC)c1OC	0.1%	1.8%
COc1cccc(N2CCN(c3ncnc4c3c(-c3ccccc3)cn4-c3ccc(C)cc3)CC2)c1	-6.1%	2.8%
CCOC(=O)c1c(S(=O)(=O)NCC(=O)Nc2ccc(F)cc2C)c(C)n(C)c1C	0.9%	0.5%
CCOC(=O)c1ccc(NC(=O)c2nn(C)c3c2COc2ccccc2-3)cc1	-2.5%	1.9%
COc1cc(NC(=O)CCCc2nnc3n(C)c(=O)c4sccc4n23)cc(OC)c1OC	0.0%	0.6%
Oc1c(C(c2ccc(Cl)cc2)N2CCOCC2)sc2nc(-c3ccco3)nn12 (stereo not given)	-0.2%	6.3%
Cc1ccccc1NC(=O)N1CCc2c(sc3c2CCCC3)C1c1ccccc1 (stereo not given)	-2.3%	-0.2%
Cc1ccc(CNC(=O)Cc2c(C)c3cc4c(C)coc4cc3oc2=O)cc1	-14%	0.6%
CC(=O)c1ccc(NC(=O)C2CCC(CNS(=O)(=O)c3cccs3)CC2)cc1 (stereo not given)	-5.1%	2.3%
CCCCOc1ccc(Cn2c(=O)oc3ccc(C)cc32)cc1OC	1.9%	2.7%
COc1ccc(-c2nc(CSc3nncn4c3cc3occc34)c(C)o2)cc1	-19%	3.5%
COc1ccc(C(=O)c2cn(Cc3cccc(C)c3)c3cc4c(cc3c2=O)OCO4)cc1	0.2%	1.4%
Cc1cc(C)cc(OCC(=O)Nc2ccc(Cl)c(-c3nc4ncccc4o3)c2)c1	-15%	0.8%
Cc1cc(C)c(NC(=O)c2c(C)oc3c2C2=NCCN2C=N3)c(C)c1	-1.1%	0.9%
CCN(CC)CCNC(=O)c1c2c(nc3ccccc13)C(=O)N(C1CCCCC1)C2	28µM*	-0.1%

Copied from the list:
`COc1cccc(CNC(=O)CCc2c(C)c3cc4c(C)c(C)oc4cc3oc2=O)c1` | PINK1 modulator = -1.4%
`Cc1ccc(-n2nc(CO)c(C(=O)NC(C)CCCc3ccccc3)n2)cc1C` (stereo not given) | PINK1 modulator = -0.1%
`COc1ccc(OC)c(NC(=O)c2nc(S(=O)(=O)Cc3ccc(F)cc3)ncc2Cl)c1` | PINK1 modulator = 8.2%
`Cc1ccc(C(=O)N2c3ccc(C)cc3C(C)(c3ccccc3)CC2(C)C)cc1` (stereo not given) | PINK1 modulator = 2.1%

(further entries)
SMILES	ClpP mod	PINK1 modulator
COc1cccc(-c2nc(Cl)nc3cc(Cl)ccc23)c1	3.3%	3.0%
O=S(=O)(NCCc1csc2nc(-c3ccc(Cl)cc3)nn12)c1ccc(Oc2ccccc2)cc1	3.1%	10%
COC(=O)c1ccc(NC(=O)C2CCN(C(=O)c3ccc(F)cc3)CC2)cc1	2.3%	-0.8%
Fc1ccc(-n2ncc3c(Nc4ccc(Oc5ccccc5)cc4)ncnc32)cc1	?	8.2%
Cc1ccc2cccc(NC(=O)c3ccc(OC(C)C)cc3)c2n1	-23%	2.2%
O=C(Cc1ccc(NC(=O)N2CCSc3ncccc32)cc1)NCc1cccc(Cl)c1	-25%	-0.9%
COc1ccc(CCNC(=O)CCn2c(=O)c3ccccc3n(CC(=O)Nc3cccc(C)c3)c2=O)cc1OC	-21%	1.8%
CCc1cccc(NC(=O)CSc2nncn3c2cc2sccc23)c1	-0.7%	1.1%
Cc1ccc(NC(=O)c2cnc3sc(N4CCOCC4)nn3c2=O)cc1N(C)C	-0.5%	0.5%
COc1ccccc1CNC(=O)C1CCN(S(=O)(=O)c2ccc3c(c2)CCCN3C(C)=O)CC1	-0.7%	-1.6%
CC(C)N(C(=O)Cn1cc(SCC(=O)Nc2ccccc2C(F)(F)F)c2ccccc21)C(C)C	-1.1%	-1.1%
Cc1cc(C)c(NC(=O)CSc2nc(=O)n(Cc3ccco3)c3c2CCC3)c(C)c1	-3.5%	-1.1%
Cc1ccc(NC(=O)c2sc3ncnc(N(C)C4CCCCC4)c3c2C)c(C)c1	-1.1%	2.1%
COc1ccc(Nc2oc(/C=C/c3cc(OC)c(OC)c(OC)c3)nc2C#N)cc1	4.0%	-0.1%
Cc1ccc(C(=O)N(Cc2ccco2)Cc2ccco2)cc1	0.3%	0.7%
CCC(Sc1nc2ncccc2o1)C(=O)Nc1ccc(OC)c(OC)c1 (stereo not given)	-0.8%	-1.4%
COc1ccc(-c2nn(C)c3sc(C(=O)N4CCN(c5cccc(Cl)c5)CC4)cc23)cc1OC	4.5%	0.4%
CCOC(=O)N1CCN(CCC(=O)Nc2cccc(F)c2)CC1	-0.4%	7.2%
CCOc1ccc(CN2CCc3nc(N4CCN(c5ccccn5)CC4)ncc3C2)cc1OC	-3.2%	-0.5%
O=C(NCc1ccccc1F)C1CCN(c2nnc(-n3cccc3)s2)CC1	-2.9%	-5.5%
COc1cc(/C=C(\C#N)C(=O)Nc2ccc(C)cc2)ccc1OCc1cc(=O)n2nc(C)sc2n1	0.1%	3.6%
CCOc1ccc2oc(=O)cc(CN3CCN(c4cc(C)ccc4C)CC3)c2c1	-1.7%	2.3%
Cc1ccc(OCC(=O)Nc2nnc(SCc3cc(=O)n4cc(C)ccc4n3)s2)cc1	-11%	5.4%
CCOC(=O)[C@]12CCC=C1N(Cc1ccc(Cl)cc1Cl)C(=O)[C@H](CC(=O)NCc1cccc(C(F)(F)F)c1)C2	-1.8%	2.3%

Single records, as listed above.
Listed for Cc1ccc(NC(=O)c2sc3ncnc(N(C)C4CCCCC4)c3c2C)c(C)c1 → ClpP mod: -1.1%; PINK1 modulator: 2.1%
Listed for COc1cc(/C=C(\C#N)C(=O)Nc2ccc(C)cc2)ccc1OCc1cc(=O)n2nc(C)sc2n1 → ClpP mod: 0.1%; PINK1 modulator: 3.6%
